YB-1 expr inh: inhibitors of YB-1 gene expression, primary screen, cell-based, fluorescence | U2OS, qRT-PCR YB-1 vs CDIP delta delta Cp, 16 h; hits give high values; zero = DMSO, each unit about twofold | delta delta Cp (YB-1 minus CDIP) (no concentration beside the values) | 0.37% of 30,000 active | AID 434959, 2010;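 active means delta delta Cp rounded down to an integer at or above 3, about 3 SD of DMSO wells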;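 further: higher means less YB-1 transcript or more CDIP transcript relative to DMSO; stock transfer was 100 nL into about 100 µL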
Shh pathway inh: Hedgehog pathway signaling inhibitors, primary screen, luminescence, Shh-LIGHT2 cells, Gli-luciferase. Shh-LIGHT2 Gli-luciferase reporter, 30 h. inhibition, % (no concentration beside the values). 2.1% of 22,000 active. AID 2313, 2010;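 active means replicate mean of 65% or more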;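 further: pathway switched on by Shh-conditioned medium diluted 1 in 25 in low serum; 100 nL library stock added to about 40 µL; 0% = median of neutral wells and 100% = positive control level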
PD-1 reversal: activators reversing PD-1 mediated T-cell inhibition, primary screen, luminescence, primary human CD4 T cells, PD-L1 beads; CellTiter-Glo 96 h; activation, % (concentration not given with the values); 29,000 tested, under 10 active; AID 2316, 2010;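 active means replicate mean of 50% or more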;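 further: 0% = median vehicle wells and 100% = positive control; 100 nL library stock added to about 50 µL; numbers are from one replicate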
MITF inhib: inhibitors of MITF, primary screen, MITF inhibitor project, cell-based, luminescence; 0.28% of 37,000 active; inhibition, % (concentration not given with the values); TRPM1 promoter luciferase, 24 h;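 active means most replicates at 85% or more, or half of them and the mean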;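 further: human melanocyte line stably carrying TRPM1 promoter luciferase reporter; 0% = vehicle wells and 100% = a positive control; the first replicate is given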
Starred values were filed as active, the others as inactive; . = no result given. A portion of the library; count on the stated rates, not on these rows.

Values run as follows: YB-1 expr inh	Shh pathway inh	PD-1 reversal	MITF inhib
C[C@@H]1CN([C@@H](C)CO)C(=O)Cc2cc(NS(=O)(=O)c3ccccc3)ccc2O[C@@H]1CN(C)S(=O)(=O)c1ccc(Cl)cc1
→ -16	-7	-3.3	-1
CC(=O)O[C@@H]1CC2C(C)(C)C=CC(=O)[C@]2(C)C2CC[C@@]3(C)[C@H](c4ccoc4)OC(=O)C4OC43[C@@]21C (stereo partly specified)
→ -0.33	25	1.5	0
COc1ccc(NC(=O)Nc2cccc3c2O[C@H](CN(C)Cc2ccc(Cl)c(Cl)c2)[C@@H](C)CN([C@H](C)CO)C3=O)cc1
→ -0.16	4	-5.5	-8
C=C(C(=O)O)C(O)CCC1(C)C2CC3C(C2)C31C (stereo unspecified)
→ -0.36	-14	0.3	12
COc1ccc(NC(=O)Nc2ccc3c(c2)C(=O)N([C@@H](C)CO)C[C@H](C)[C@H](CN(C)S(=O)(=O)c2ccc(C)cc2)O3)cc1
→ -9.9	.	-2.1	-10
COC(=O)c1cc(NC(=O)CSc2nc(C)cc(C)n2)cc(C(=O)OC)c1
→ .	.	-0.2	2
CC(C)NC(=O)Nc1ccc2c(c1)CC(=O)N([C@H](C)CO)C[C@@H](C)[C@@H](CN(C)CC1CCCCC1)O2
→ 0.34	54	1.9	-8
C[C@H](CO)N1C[C@H](C)[C@H](CN(C)C)Oc2c(NC(=O)Nc3ccc(F)cc3)cccc2C1=O
→ 0.83	25	.	-3
C[C@@H]1O[C@@H](O[C@@H]2[C@@H](O)[C@H](O[C@@H]3[C@@H](O)[C@@H](O)[C@H](O[C@H]4[C@H](OC(=O)[C@]56CCC(C)(C)C[C@H]5C5=CCC7[C@@]8(C)C[C@H](O)[C@H](O[C@@H]9O[C@H](C(=O)O)[C@@H](O)[C@H](O)[C@H]9O)[C@@](C)(CO)C8[C@H](O)C[C@@]7(C)[C@]5(C)C[C@H]6O)OC[C@H](O)[C@@H]4O)O[C@H]3C)OC[C@H]2O)[C@H](O)[C@H](O)[C@H]1O (stereo partly specified)
→ -0.35	-3	2.5	1
CC(NC(=O)c1ccccc1N)C(N)=O (stereo unspecified)
→ 1.9	-7	-1.2	0
Cn1nnnc1SCCNCc1cccnc1
→ .	.	1.3	-2
C[C@@H]1CN([C@@H](C)CO)C(=O)c2cc(NC(=O)C3CC3)ccc2O[C@@H]1CN(C)C(=O)Nc1ccc2c(c1)OCO2
→ 0.012	-2	1.1	-9
COC(=O)c1ccc(NC(=O)CSc2nnnn2-c2ccccc2OC)cc1
→ .	.	0.5	20
C[C@H](CO)N1C[C@H](C)[C@@H](CN(C)CC2CC2)Oc2ccc(NS(=O)(=O)c3ccc(F)cc3)cc2C1=O
→ -0.55	-4	1.0	-10
O=C(Oc1ccccc1)N1CCCC1
→ 0.017	0	1.8	-20
Cc1nn(CC(=O)NCc2cccnc2)c(C)c1[N+](=O)[O-]
→ .	.	2.1	-7
FC(F)(F)c1cc(C#CCN2CCCCC2)cc(C(F)(F)F)c1
→ -0.21	-4	-1.2	-13
C[C@H](CO)N1C[C@H](C)[C@H](CN(C)C)Oc2ccc(NS(C)(=O)=O)cc2C1=O
→ -0.38	25	0.7	-6
Cn1c(SCc2nn[nH]n2)nc2c1c(=O)n(Cc1ccccc1Cl)c(=O)n2C
→ .	.	0.2	-11
CN(C)CCCN1C(=O)C(=O)C(C(=O)c2ccco2)C1c1cccc([N+](=O)[O-])c1 (stereo unspecified)
→ .	.	3.7	-33
C[C@H](CO)N1C[C@H](C)[C@H](CN(C)Cc2ccc(C(F)(F)F)cc2)Oc2ccc(NC(=O)CCC(F)(F)F)cc2C1=O
→ 0.069	-2	-1.9	6
Cn1c(SCC(=O)Nc2ccc3c(c2)OCCO3)nnc1-c1cnccn1
→ .	.	1.0	-5
CC(=O)N(CC(C)C(=O)O)c1c(I)cc(I)c(N)c1I (stereo unspecified)
→ -0.24	5	7.5	3
CC(=O)OCC1OC(n2ccc(=O)[nH]c2=O)C(OC(C)=O)C1OC(C)=O (stereo unspecified)
→ -0.0018	0	0.6	9
C[C@H]1CN([C@@H](C)CO)C(=O)c2cccc(NC(=O)c3ccc(-c4nccs4)cc3)c2O[C@H]1CN(C)S(=O)(=O)c1ccc(Cl)cc1
→ 0.25	93*	1.3	-16
COc1ccc(NC(=O)N(C)C[C@H]2OCCCC[C@@H](C)Oc3ccc(NS(C)(=O)=O)cc3C(=O)N([C@H](C)CO)C[C@@H]2C)cc1
→ -0.58	.	-0.4	-1
CC(=O)N/C(=C/c1ccc(Cl)c(Cl)c1)C(=O)O
→ -0.22	0	2.4	-17
C[C@@H]1CN([C@H](C)CO)C(=O)c2cc(NC(=O)C3CCCCC3)ccc2O[C@@H]1CN(C)C
→ 0.1	.	1.4	4
COc1ccc(NC(=O)Nc2ccc3c(c2)C(=O)N([C@H](C)CO)C[C@H](C)[C@H](CN(C)C(=O)Nc2cccc4ccccc24)OCCCC[C@@H](C)O3)cc1
→ 0.45	-88	1.9	-14
Cc1cc(C)c2c(n1)sc1c(=O)n(/N=C/c3ccccc3)cnc12
→ -0.057	-22	-1.0	-34

Three compounds already listed, sorted by molecular weight, highest first.
Values run as follows: YB-1 expr inh	Shh pathway inh	PD-1 reversal	MITF inhib
C[C@@H]1CN([C@@H](C)CO)C(=O)Cc2cc(NS(=O)(=O)c3ccccc3)ccc2O[C@@H]1CN(C)S(=O)(=O)c1ccc(Cl)cc1
→ -16	-7	-3.3	-1
FC(F)(F)c1cc(C#CCN2CCCCC2)cc(C(F)(F)F)c1
→ -0.21	-4	-1.2	-13
Cn1nnnc1SCCNCc1cccnc1
→ .	.	1.3	-2

Following part:
Values run as follows: YB-1 expr inh	Shh pathway inh	PD-1 reversal	MITF inhib
C[C@H]1CN([C@@H](C)CO)C(=O)c2cc(NC(=O)Nc3cccc4ccccc34)ccc2O[C@@H]1CN(C)S(=O)(=O)c1ccccc1
→ -0.065	41	-1.7	2
CCc1ccc2c(c1)=C(c1[nH]c(=S)[nH]c1O)C(=O)N=2
→ 0.24	-28	0.0	29
CSc1ccccc1NC(=O)CN(C)S(=O)(=O)c1ccc(F)cc1
→ .	.	2.8	-7
C[C@@H]1CN([C@H](C)CO)C(=O)c2cc(NC(=O)C3CC3)ccc2O[C@H]1CN(C)S(=O)(=O)c1cccs1
→ -0.012	.	-1.1	-2
CCCCC1(Cc2ccccc2)C(=O)Nc2ccccc2C1=O (stereo unspecified)
→ 0.053	.	-2.0	27
COc1ccc(CN(C)C[C@@H]2Oc3c(NC(=O)NC4CCCCC4)cccc3C(=O)N([C@H](C)CO)C[C@@H]2C)cc1
→ -0.96	-48	0.7	4
COc1ccc(-c2nnc(SCC(=O)Nc3cccc(F)c3)n2C)cc1
→ .	.	1.2	19
COc1ccc(S(=O)(=O)Nc2ccc3c(c2)C(=O)N([C@H](C)CO)C[C@H](C)[C@@H](CN(C)C(=O)Nc2ccc(C(F)(F)F)cc2)O3)cc1
→ -0.35	-11	-0.2	3
O=C(CSc1nc2ccccc2[nH]1)Nc1cccc(I)c1
→ .	.	-4.9	-20
COc1ccc(NC(=O)Nc2cccc3c2O[C@@H](CN(C)Cc2ccncc2)[C@@H](C)CN([C@H](C)CO)C3=O)cc1
→ -0.17	3	2.0	-5
COc1ccc(S(=O)(=O)N(C)C[C@H]2Oc3ccc(NS(=O)(=O)c4cccs4)cc3CC(=O)N([C@H](C)CO)C[C@H]2C)cc1
→ 0.013	53	0.0	-12
C[C@@H]1CN([C@@H](C)CO)C(=O)Cc2cc(NC(=O)CCC(F)(F)F)ccc2O[C@@H]1CN(C)Cc1ccc(Oc2ccccc2)cc1
→ -0.038	7	-4.1	18
COc1ccc(NC(=O)Nc2cccc3c2O[C@H](CN(C)S(=O)(=O)c2ccc(Cl)cc2)[C@H](C)CN([C@@H](C)CO)C3=O)cc1
→ -0.49	33	.	-6
COc1cc(-c2coc3cc(O)cc(O)c3c2=O)c(OC)cc1O
→ 0.74	-15	.	.
CS(=O)(=O)N(CC(=O)Nc1ccc(Oc2ccccc2)cc1)C1CCCCC1
→ .	.	1.0	16
COc1cc(-c2nnn(CC(=O)Nc3ccccc3C)n2)cc(OC)c1OC
→ .	.	-0.6	66
C[C@H]1CN([C@@H](C)CO)C(=O)c2cc(NC(=O)C3CC3)ccc2O[C@H]1CN(C)C(=O)Nc1ccc2c(c1)OCO2
→ -0.13	.	.	10
CC(=O)NC(=S)Nc1ccc(S(=O)(=O)Nc2nc(C)cc(C)n2)cc1
→ .	.	3.5	-9
C[C@H](CO)N1C[C@H](C)[C@H](CN(C)S(=O)(=O)c2ccccc2)Oc2ccc(NC(=O)Cc3ccccc3)cc2CC1=O
→ -0.011	38	.	16
COc1ccc(CN(C)C[C@@H]2Oc3ccc(NS(=O)(=O)c4cccs4)cc3C(=O)N([C@@H](C)CO)C[C@H]2C)cc1
→ 0.14	11	0.3	-10
CNC[C@@H]1Oc2c(NC(=O)Nc3c(C)noc3C)cccc2C(=O)N([C@H](C)CO)C[C@@H]1C
→ 0.15	16	1.3	-4
CCOC(=O)c1c(NC(=O)CC2NCCNC2=O)sc2c1CCCC2 (stereo unspecified)
→ .	.	-0.9	8
C[C@H]1CN([C@@H](C)CO)C(=O)c2cc(NC(=O)Nc3ccc4c(c3)OCO4)ccc2O[C@@H]1CN(C)S(C)(=O)=O
→ 0.18	-37	0.9	-4
C[C@H]1CN([C@@H](C)CO)C(=O)c2cc(NS(=O)(=O)c3cn(C)cn3)ccc2O[C@@H]1CN(C)Cc1ccc(Cl)c(Cl)c1
→ 0.64	.	-0.3	3
COc1ccc(CN(C)C[C@@H]2Oc3ccc(NC(=O)Nc4c(C)noc4C)cc3C(=O)N([C@@H](C)CO)C[C@@H]2C)cc1
→ -0.12	-15	0.1	-2
C[C@@H]1CN([C@H](C)CO)C(=O)c2cc(NC(=O)CCCN(C)C)ccc2O[C@H]1CN(C)Cc1ccncc1
→ 0.49	-25	1.2	-13
COC(=O)c1ccc(NC(=O)CN2C(=O)CN(c3ccc(Br)cc3)C2=O)cc1
→ .	.	1.9	14
Cc1noc(C)c1NC(=O)Nc1ccc2c(c1)CC(=O)N([C@H](C)CO)C[C@@H](C)[C@@H](CN(C)S(=O)(=O)c1cn(C)cn1)O2
→ 0.74	-8	1.6	-9
C[C@H](CO)N1C[C@H](C)[C@H](CN(C)CC2CCCCC2)Oc2c(NS(=O)(=O)c3ccc(Cl)cc3)cccc2C1=O
→ 0.33	12	-0.4	5
CC(=O)O[C@@H]1CC(C)=C2[C@H]1[C@H](C)CC[C@H]2/C=C(\C)C(=O)O
→ -0.56	-37	1.7	37

Limited to Shh pathway inh and MITF inhib, for 3 of the compounds above:
SMILES	Shh pathway inh	MITF inhib
CNC[C@@H]1Oc2c(NC(=O)Nc3c(C)noc3C)cccc2C(=O)N([C@H](C)CO)C[C@@H]1C	16	-4
CCc1ccc2c(c1)=C(c1[nH]c(=S)[nH]c1O)C(=O)N=2	-28	29
COc1cc(-c2nnn(CC(=O)Nc3ccccc3C)n2)cc(OC)c1OC	.	66

(further entries)
Values run as follows: YB-1 expr inh	Shh pathway inh	PD-1 reversal	MITF inhib
Cc1cccc(NC(=O)Cn2cnc3sc(-c4ccccc4)cc3c2=O)c1
→ .	.	1.5	-9
CCOC(=O)c1c(NC(=O)Cn2cnc3ccccc3c2=O)sc(C)c1C
→ .	.	1.4	-7
Cc1ccc(OCC(O)Cn2c(C)nc3ccccc32)cc1 (stereo unspecified)
→ .	.	0.2	42
CC1(C)CC[C@]2(C(=O)O)CC[C@]3(C)C(=CCC4[C@@]5(C)C[C@@H](O)[C@H](O)[C@@](C)(CO)C5CC[C@]43C)[C@@H]2[C@@H]1O (stereo partly specified)
→ 0.28	-8	.	.
Cc1cccc(NC(=O)CCc2nc(-c3ccc(Cl)cc3)no2)c1C
→ .	.	-3.9	6
CN(c1ccccc1C(=O)Nc1cccnc1)S(C)(=O)=O
→ .	.	1.8	-11
COc1ccc(CN(C)C[C@H]2Oc3ccc(NC(=O)Nc4ccc(OC)cc4)cc3CC(=O)N([C@H](C)CO)C[C@H]2C)cc1
→ 0.22	-10	.	5
CC(C(=O)O)c1ccc(N2Cc3ccccc3C2=O)cc1 (stereo unspecified)
→ 0.0097	-331	1.9	33
Cc1cc(C)nc(NS(=O)(=O)c2ccc(NC(=O)c3ccco3)cc2)n1
→ .	.	0.5	13
CC(C)CC(C(=O)Oc1ccc2c3c(c(=O)oc2c1)CCC3)N1C(=O)c2ccccc2C1=O (stereo unspecified)
→ 0.21	.	0.7	-9
COc1ccc(NC(=O)Nc2ccc3c(c2)C(=O)N([C@@H](C)CO)C[C@H](C)[C@H](CN(C)C(=O)Nc2c(C)noc2C)O3)cc1
→ -0.051	-11	0.8	-9
CCOc1cc(S(=O)(=O)NC2CC(C)(C)NC(C)(C)C2)ccc1Cl
→ .	.	0.7	-1
Cc1c(CCC(=O)O)c(=O)n2c([nH]c3ccccc32)c1C#N
→ .	.	1.4	-10
C[C@H]1CN([C@@H](C)CO)C(=O)c2cccc(NC(=O)c3cnccn3)c2O[C@H]1CN(C)Cc1ccncc1
→ -0.073	-13	.	-2
CCN1CCCC1CNC(=O)c1cc(S(N)(=O)=O)ccc1OC (stereo unspecified)
→ -0.79	-2	.	-2
